Screening data deposited in PubChem by Fisher Drug Discovery Resource Center.
NPYLR7 ag = mosquito NPYLR7 agonism | HEK293T NPYLR7/Galpha15, GCaMP6s calcium fluorescence | activation, % at 10 µM | 270,000 compounds, 0.15% hits; in the data active = activation above about 40%;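 note: 0% = vehicle and 100% = reference agonist at the receptor; some compounds past the cut are filed as inactive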
NPYLR7 ag max-min = second read-out of NPYLR7 ag, no call of its own (marks repeat the call); activation, %; measured here: Max-Min RFU normalised activation; some inactives read as strong as hits;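 span of the calcium signal over five minutes; 0% = vehicle and 100% = native peptide agonist; compound fluorescence can raise it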
* marks the source's active call; other numbers are inactive results; & = joins results of further samples. Only part of the results is shown; count on the stated rates, not on these rows.

How did Cc1ccccc1Nc1oc2c(c1-c1ccccc1)c(=O)n(C)c(=O)n2C do in these assays?
NPYLR7 ag: -3.0; NPYLR7 ag max-min: -5.4

Results for COc1ccc(-c2ccc(=O)n(CCNS(=O)(=O)c3ccc(C)cc3C)n2)cc1 ?
NPYLR7 ag: -0.6; NPYLR7 ag max-min: -1.1

What do the screens show for `COCCCNC(=O)c1cc(-c2ccccc2OC)nc2cc(-c3ccc(Cl)cc3)nn12`?
NPYLR7 ag: -11.3; NPYLR7 ag max-min: -3.6

What do the screens show for `COc1ccc(-c2cn(Cc3nc(C)c4c(n3)CCCC4)nn2)cc1OC`?
NPYLR7 ag: 6.6; NPYLR7 ag max-min: 3.1

Results for O=C(NCC(F)(F)F)c1ccccc1NCc1cccc(F)c1 ?
NPYLR7 ag: 6.4; NPYLR7 ag max-min: 3.9

What do the screens show for `O=C1NCCN2CCN(Cc3cccn3S(=O)(=O)c3ccccc3)CC12` (stereo not given)?
NPYLR7 ag: 21.8; NPYLR7 ag max-min: 8.8

Results for COc1ccc(C2=NN(C(=O)CN3CCC4(CC3)OCCO4)C(c3cc(OC)ccc3OC)C2)c(OC)c1 (stereo not given) ?
NPYLR7 ag: -7.6; NPYLR7 ag max-min: 5.2

How did CCOCCCNC(=S)NNC(=O)c1c(Cl)c(C)nn1C do in these assays?
NPYLR7 ag: -10.4; NPYLR7 ag max-min: -13.2

How did CC1=Nc2ccccc2C1=Cc1c(N)n2nc(C(C)C)sc2nc1=O do in these assays?
NPYLR7 ag: -1.8; NPYLR7 ag max-min: -4.2

Results for O=C(c1ccco1)N1CCCN(Cc2nc(C(c3ccccc3)c3ccccc3)no2)CC1 ?
NPYLR7 ag: 17.8; NPYLR7 ag max-min: 7.2

Overlap with the part before: 2 entries, then new ones.
How did CC1=Nc2ccccc2C1=Cc1c(N)n2nc(C(C)C)sc2nc1=O do in these assays?
NPYLR7 ag: -1.8; NPYLR7 ag max-min: -4.2

Results for O=C(c1ccco1)N1CCCN(Cc2nc(C(c3ccccc3)c3ccccc3)no2)CC1 ?
NPYLR7 ag: 17.8; NPYLR7 ag max-min: 7.2

Results for CCc1nn2c(N3CCN(c4ccccn4)CC3)cc(C)nc2c1-c1ccccc1 ?
NPYLR7 ag: 2.7; NPYLR7 ag max-min: 5.4

What do the screens show for `CCn1ccc2c(CN3[C@@H]4CC[C@H]3CNC(=O)C4)cccc21`?
NPYLR7 ag: 15.8; NPYLR7 ag max-min: 1.8

How did CC(C)OP(=O)(OC(C)C)C(NCc1ccccc1)c1ccccc1 (stereo not given) do in these assays?
NPYLR7 ag: -18.6; NPYLR7 ag max-min: -22.9

How did O=C(CSc1nnc2ccccn12)Nc1ccccc1F do in these assays?
NPYLR7 ag: -3.3; NPYLR7 ag max-min: -4.3

Results for COc1cccc(-n2c(Cn3cncn3)n[nH]c2=S)c1 ?
NPYLR7 ag: -8.8; NPYLR7 ag max-min: -7.8

Results for COc1c(F)cc(C2CC(=O)Nc3c2c(C(C)C)nn3C)cc1Cl (stereo not given) ?
NPYLR7 ag: -4.0; NPYLR7 ag max-min: -14.2

How did C=C(C)Cn1c(=O)c2c(nc3n2CCCN3c2cccc(C)c2)n(C)c1=O do in these assays?
NPYLR7 ag: 3.3; NPYLR7 ag max-min: -0.9

What do the screens show for `Cc1cc(C2=NNC(=CSc3nnnn3Cc3cccs3)O2)c(C)o1`?
NPYLR7 ag: 8.7; NPYLR7 ag max-min: 12.6

How did COc1c(C)ccc(NS(=O)(=O)c2ccccc2F)c1C do in these assays?
NPYLR7 ag: 7.7; NPYLR7 ag max-min: 5.9

How did COc1ccc(-c2nc(=S)n(CN3C4CCC3CC(O)C4)[nH]2)cc1 (stereo not given) do in these assays?
NPYLR7 ag: -0.1; NPYLR7 ag max-min: -0.7

An excerpt from above in order of number of heavy atoms, descending.
What do the screens show for `Cc1cc(C2=NNC(=CSc3nnnn3Cc3cccs3)O2)c(C)o1`?
NPYLR7 ag: 8.7; NPYLR7 ag max-min: 12.6

Results for COc1c(F)cc(C2CC(=O)Nc3c2c(C(C)C)nn3C)cc1Cl (stereo not given) ?
NPYLR7 ag: -4.0; NPYLR7 ag max-min: -14.2

How did COc1c(C)ccc(NS(=O)(=O)c2ccccc2F)c1C do in these assays?
NPYLR7 ag: 7.7; NPYLR7 ag max-min: 5.9

The results go on.
What do the screens show for `O=C(NCC(O)C1CC1)C1CCC(c2ccccc2)CC1` (stereo not given)?
NPYLR7 ag: 6.7; NPYLR7 ag max-min: 2.4

Results for CC(=O)N[C@@H](C)C(=O)N(C)Cc1ccccc1OCC(C)C ?
NPYLR7 ag: 6.6; NPYLR7 ag max-min: 5.3

Results for CCc1cccc(C)c1NC(=O)Cn1nc(-c2ccco2)c2sc(N3CCCC3)nc2c1=O ?
NPYLR7 ag: -3.2; NPYLR7 ag max-min: -5.0

Results for Nc1cc(C(=O)N=Nc2c(O)[nH]c3ccc(F)cc23)n[nH]c1=O ?
NPYLR7 ag: -1.8; NPYLR7 ag max-min: -8.0

How did CCC(C)N(Cc1c(-c2ccccc2)noc1N1CCSCC1)C(=O)Nc1ccc(C)cc1 (stereo not given) do in these assays?
NPYLR7 ag: 6.9; NPYLR7 ag max-min: 8.3

How did COc1cc(Br)c(C=C(C#N)S(C)(=O)=O)cc1OC do in these assays?
NPYLR7 ag: -1.8; NPYLR7 ag max-min: 5.3

Results for NCCC[C@H](N)CC(=O)NC1CNC(=O)[C@H]([C@H]2C[C@H](O)N=C(N)N2)NC(=O)C(C=NC(N)=O)NC(=O)[C@H](CO)NC(=O)[C@H](CO)NC1=O (stereo not given in full) ?
NPYLR7 ag: -7.6; NPYLR7 ag max-min: -6.0

How did CC(=O)c1ccc(C(=O)N(CCCN(C)C)c2nc3ccc(Br)cc3s2)cc1 do in these assays?
NPYLR7 ag: 1.8; NPYLR7 ag max-min: 0.2

What do the screens show for `Cc1nc(Cc2ccc(F)cc2)sc1C(=O)NC(C)C`?
NPYLR7 ag: 1.1; NPYLR7 ag max-min: 0.3

Results for CCOC(=O)[C@@H]1CCCC[C@@H]1NC(=O)c1csc(COC(=O)c2ccccc2)n1 ?
NPYLR7 ag: 8.3; NPYLR7 ag max-min: 0.3

What do the screens show for `CCn1nc(C)cc1C(=O)N1CCc2c(cnc(C)c2CNS(=O)(=O)c2cccs2)C1`?
NPYLR7 ag: 17.2; NPYLR7 ag max-min: 3.1

Results for Cc1ccc(C)c(COc2cccn3c(CCN4C(=O)c5ccccc5C4=O)cnc23)c1 ?
NPYLR7 ag: 1.3; NPYLR7 ag max-min: -2.1

How did O=C(Nc1ccccc1F)C1CSCN1C(=O)COc1ccc(F)cc1F (stereo not given) do in these assays?
NPYLR7 ag: -0.5; NPYLR7 ag max-min: 11.2

How did CC(C)OC(=O)c1nc(N)n[nH]1 do in these assays?
NPYLR7 ag: -6.5; NPYLR7 ag max-min: -17.3

What do the screens show for `CN(C)Cc1ccc(NC(=O)c2ccc(N(C)C)cc2)cc1`?
NPYLR7 ag: -4.3; NPYLR7 ag max-min: 8.4

How did C=CCN1C[C@H]2COc3ccc(C)cc3[C@H]2N(C(=O)Cc2cccs2)CCC1=O do in these assays?
NPYLR7 ag: 16.9; NPYLR7 ag max-min: 20.0

How did CCOC(=O)c1cc(-c2ccc(OC)cc2)n(C2CCN(C(=O)c3ccc(F)c(F)c3)CC2)n1 do in these assays?
NPYLR7 ag: 4.9; NPYLR7 ag max-min: 4.5

What do the screens show for `O=C(O)c1ccc(-c2cccs2)cc1F`?
NPYLR7 ag: -3.5; NPYLR7 ag max-min: -1.9

What do the screens show for `O=C(NCc1ccccc1CN1CCCC1)C1=Cc2cc(Cl)ccc2OC1`?
NPYLR7 ag: -4.9; NPYLR7 ag max-min: -5.0

Results for CN(CC1COc2ccccc2O1)C(=O)c1ccc(S(=O)(=O)NC2CC2)o1 (stereo not given) ?
NPYLR7 ag: 1.8; NPYLR7 ag max-min: -2.9

Results for CCN(CC)C(=O)CCCC(=O)Nc1nc(-c2ccc(O)cc2)cs1 ?
NPYLR7 ag: 2.2; NPYLR7 ag max-min: 1.2

What do the screens show for `Cc1cc(C)n(CC(C)NCc2c(C(=O)N3CCOCC3)nc3c(C)cccn23)n1` (stereo not given)?
NPYLR7 ag: -8.3; NPYLR7 ag max-min: -14.2

How did CCOC(=O)c1c(NC(=O)c2cc(C)on2)sc2ccccc12 do in these assays?
NPYLR7 ag: 3.9; NPYLR7 ag max-min: 0.6

How did Cc1c(C)n2c3c(=O)n(C)c(=O)n(C)c3nc2n1-c1ccccc1N do in these assays?
NPYLR7 ag: -0.9; NPYLR7 ag max-min: 0.5

What do the screens show for `CCOc1ccc(N2C(=O)CSC2c2cccc(NC(=O)Cc3ccccc3)c2)cc1` (stereo not given)?
NPYLR7 ag: 13.7; NPYLR7 ag max-min: 15.7

What do the screens show for `CCCCCCCCCCCC(=O)N1CCC2(CC1)NC(=O)c1cc(F)c(F)cc1N2`?
NPYLR7 ag: 12.9; NPYLR7 ag max-min: 26.3

Results for O=C(CSc1nc2ccccc2c(=O)n1C1CC1)c1ccc(O)c(O)c1 ?
NPYLR7 ag: 1.4; NPYLR7 ag max-min: -4.5

How did Cc1ccc(-c2nc(NC(=O)c3ccn(C)c(=O)c3)sc2C)s1 do in these assays?
NPYLR7 ag: -22.1; NPYLR7 ag max-min: -25.2

How did CCOC(=O)c1c(C(C)C)csc1N=Cc1c(O)n(C)c(=O)n(C)c1=O do in these assays?
NPYLR7 ag: 17.5; NPYLR7 ag max-min: 10.9

What do the screens show for `CC(C)CCN(CC(=O)Nc1cc(C(C)(C)C)no1)C1CC1`?
NPYLR7 ag: 2.7; NPYLR7 ag max-min: 1.1

Looked up one by one from above, three records:
How did CCOC(=O)c1c(C(C)C)csc1N=Cc1c(O)n(C)c(=O)n(C)c1=O do in these assays?
NPYLR7 ag: 17.5; NPYLR7 ag max-min: 10.9

How did Cc1ccc(-c2nc(NC(=O)c3ccn(C)c(=O)c3)sc2C)s1 do in these assays?
NPYLR7 ag: -22.1; NPYLR7 ag max-min: -25.2

What do the screens show for `CCCCCCCCCCCC(=O)N1CCC2(CC1)NC(=O)c1cc(F)c(F)cc1N2`?
NPYLR7 ag: 12.9; NPYLR7 ag max-min: 26.3

Next section.
What do the screens show for `CC(C)Cn1c(CCNC(=O)C(C)(C)C)nc2ccccc21`?
NPYLR7 ag: -1.9; NPYLR7 ag max-min: 4.7

Results for O=C(Nc1nc(-c2cc3ccccc3oc2=O)cs1)c1cccc(C(F)(F)F)c1 ?
NPYLR7 ag: -2.2; NPYLR7 ag max-min: -4.1

How did COc1ccc(S(=O)(=O)N2CCC[C@@H]2C(=O)NC2CCC(NC(=O)c3ccccc3)CC2)cc1 (stereo not given in full) do in these assays?
NPYLR7 ag: 3.1; NPYLR7 ag max-min: 3.6

Results for CCSCCNC(=O)c1c(C)noc1-c1ccc(C(C)(C)C)cc1 ?
NPYLR7 ag: 26.9; NPYLR7 ag max-min: 20.0

How did CC1CCN(Cc2ccc(CNC(=O)Cc3cn4ccccc4n3)cc2)CC1 do in these assays?
NPYLR7 ag: -2.3; NPYLR7 ag max-min: -3.2

How did Cc1ccc2nc(CN(C)C(=O)CC3CCc4ccccc43)[nH]c2c1 (stereo not given) do in these assays?
NPYLR7 ag: 9.5; NPYLR7 ag max-min: 7.5

How did CCOc1ccc(-n2nnnc2CN2CCN(S(=O)(=O)c3ccc(F)cc3)CC2)cc1 do in these assays?
NPYLR7 ag: 8.9; NPYLR7 ag max-min: 8.4

Results for Cc1c(CNC(=O)c2ccc(C3CCNC3)cc2)oc2ccccc12 (stereo not given) ?
NPYLR7 ag: 3.8; NPYLR7 ag max-min: 0.3

Results for CC(=O)N1CCN(C(=O)c2cc(-c3ccccc3Cl)nc3cc(C(C)(C)C)nn23)CC1 ?
NPYLR7 ag: -8.1&0.1; NPYLR7 ag max-min: 0.4&9.7

Results for CCCCCCn1c(SCCC(C)C)nc2c1c(=O)[nH]c(=O)n2C ?
NPYLR7 ag: 5.9; NPYLR7 ag max-min: 4.2

How did COc1ccc(-c2noc(CSc3nnc(C4CC4)n3C3CC3)n2)cc1OC do in these assays?
NPYLR7 ag: 1.3; NPYLR7 ag max-min: 10.0

Results for NC(=NCCC[C@H](N)C(=O)O)NO ?
NPYLR7 ag: -0.5; NPYLR7 ag max-min: -21.8

What do the screens show for `Cc1ccccc1NC(=O)c1ccc2c(c1[N+](=O)[O-])C(=O)c1ccccc1C2=O`?
NPYLR7 ag: -4.7; NPYLR7 ag max-min: -8.9

How did O=C(Cc1cccs1)N1CC(=O)N(CC2CC2)CC(O)C1 (stereo not given) do in these assays?
NPYLR7 ag: 22.4; NPYLR7 ag max-min: 33.6

How did Cc1ccc2oc(-c3ccc(C)c(N)c3)nc2c1 do in these assays?
NPYLR7 ag: 2.5; NPYLR7 ag max-min: -0.9

Results for O=C(NCc1cccc(Cl)c1)C1CCCN1C(=O)c1cccs1 (stereo not given) ?
NPYLR7 ag: 7.9; NPYLR7 ag max-min: 6.5

What do the screens show for `COc1cc(C(=O)NN=c2oc3ccccc3cc2C(N)=O)cc(OC)c1OC`?
NPYLR7 ag: -0.7; NPYLR7 ag max-min: 7.9

What do the screens show for `CCOC(=O)c1c(NC(=O)c2ccc([N+](=O)[O-])cc2)sc(C(=O)Nc2ccccc2C)c1C`?
NPYLR7 ag: -7.7; NPYLR7 ag max-min: -2.6

Results for NC(=O)c1c(NC(=O)CN2CCN(C(=O)C3CCCO3)CC2)sc2c1CCC2 (stereo not given) ?
NPYLR7 ag: 5.9; NPYLR7 ag max-min: 6.8

Results for O=C(O)C1(Cc2ccccc2C(F)(F)F)CCN(c2cnccn2)CC1 ?
NPYLR7 ag: 13.9; NPYLR7 ag max-min: 12.2

What do the screens show for `O=C(O)c1ccc(NCc2ccccc2)c(NC(=O)C2C3C=CC(C3)C2C(=O)O)c1` (stereo not given)?
NPYLR7 ag: -4.1; NPYLR7 ag max-min: -2.6
